High-throughput results as filed in PubChem BioAssay.
Vaccinia stage: blocks a specific stage of Vaccinia orthopoxvirus infection, primary screen, cell-based, single point. actives 0.01% (n = 89,000). activity change (mCherry), % (test concentration not listed). Vaccinia-infected cells, mCherry/Venus stage reporter fluorescence; hits give low values; some inactives read as strong as hits;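 active means mCherry past -33% and 40 or more points under the early reporter, replicates agreeing; inconclusive means past -33% without that gap or agreement; tested in A549 cells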;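 further: scaled between vehicle wells and reference inhibitor wells; 23 nL library stock went into each well; one replicate is shown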
Vaccinia stage Venus: second read-out of Vaccinia stage, no call of its own (marks repeat the call); activity change (Venus), %; measured here: Venus reporter, other viral stage;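 negative = less Venus signal; first of two replicates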
Numbers without * were called inactive; u = inconclusive; x = not tested or not shown; & = joins results of further samples. A portion of the library (hit frequency here may not be typical).

Sample of the layout, six compounds:
Results follow in this order: Vaccinia stage	Vaccinia stage Venus
- CC(C)NC(=O)N(C)C[C@@H]1Oc2ncc(C#CC3CCCC3)cc2C(=O)N([C@H](C)CO)C[C@H]1C
→ 10	7
- C[C@@H](NC(=O)C[C@H]1C[C@@H]2c3cc(NS(=O)(=O)c4ccc(F)cc4)ccc3O[C@@H]2[C@H](CO)O1)c1ccccc1
→ -6	4
- CNC[C@@H]1Oc2ccc(NS(=O)(=O)c3ccccc3)cc2CC(=O)N([C@H](C)CO)C[C@@H]1C
→ 14	10
- O=S(=O)(c1ccc(F)cc1)N1CC[C@@H]2[C@H]1c1cc(-c3ccccc3F)ccc1N[C@@H]2CO
→ -24	-21
- O=C(C[C@@H]1CC[C@H]2[C@@H](COC[C@@H](O)CN2Cc2cc(F)cc(F)c2)O1)NC1CCC1
→ 3	-5
- C[C@H]1CCCCO[C@H](CN(C)Cc2ccc3c(c2)OCO3)[C@@H](C)CN([C@@H](C)CO)C(=O)c2cc(NC(=O)C3CCCCC3)ccc2O1
→ u	x

The list itself, previewed entries included:
Results follow in this order: Vaccinia stage	Vaccinia stage Venus
- CC(C)NC(=O)N(C)C[C@@H]1Oc2ncc(C#CC3CCCC3)cc2C(=O)N([C@H](C)CO)C[C@H]1C
→ 10	7
- C[C@@H](NC(=O)C[C@H]1C[C@@H]2c3cc(NS(=O)(=O)c4ccc(F)cc4)ccc3O[C@@H]2[C@H](CO)O1)c1ccccc1
→ -6	4
- CNC[C@@H]1Oc2ccc(NS(=O)(=O)c3ccccc3)cc2CC(=O)N([C@H](C)CO)C[C@@H]1C
→ 14	10
- O=S(=O)(c1ccc(F)cc1)N1CC[C@@H]2[C@H]1c1cc(-c3ccccc3F)ccc1N[C@@H]2CO
→ -24	-21
- O=C(C[C@@H]1CC[C@H]2[C@@H](COC[C@@H](O)CN2Cc2cc(F)cc(F)c2)O1)NC1CCC1
→ 3	-5
- C[C@H]1CCCCO[C@H](CN(C)Cc2ccc3c(c2)OCO3)[C@@H](C)CN([C@@H](C)CO)C(=O)c2cc(NC(=O)C3CCCCC3)ccc2O1
→ u	x
- Cc1noc(C)c1NC(=O)N(C)C[C@@H]1OCCCC[C@H](C)Oc2ccc(NS(=O)(=O)c3cccs3)cc2C(=O)N([C@@H](C)CO)C[C@H]1C
→ 33	15
- O=C(NCc1ccc(F)cc1)[C@H]1[C@H](CO)[C@H]2Cn3c(cccc3=O)[C@H]2N1Cc1ccccn1
→ 5	-3
- COc1cccc(C#Cc2cnc3c(c2)C(=O)N([C@@H](C)CO)C[C@@H](C)[C@H](CN(C)C(=O)C2CCCCC2)O3)c1
→ u	x
- O=C(c1ccccn1)N1CC2(C1)[C@H](c1ccccc1)[C@@H](CO)N2Cc1cccnc1
→ 6	5
- O=C(C[C@H]1CC[C@@H]2[C@H](COC[C@@H](O)CN2S(=O)(=O)c2ccc(F)cc2)O1)N[C@H]1CCN(Cc2ccccc2)C1
→ -11	0
- O=C(C1CCCC1)N1C[C@H]2[C@@H](c3ccccc31)[C@H](CO)N2C(=O)Nc1cccc(F)c1
→ 10	9
- C[C@@H]1CN([C@@H](C)CO)C(=O)c2cc(NC(=O)CCN3CCOCC3)ccc2O[C@H]1CN(C)Cc1ccc(-c2ccccc2)cc1
→ -7	-13
- CCCC(=O)N1C[C@@H]2[C@H](c3ccccc31)[C@H](CO)N2C(=O)Nc1ccccc1
→ -1	5
- CCC(=O)N1CC2(CN(Cc3ccc(F)cc3)C2)c2c(n(C)c3cc(OC)ccc23)[C@H]1CO
→ -22	-27
- C[C@@H]1CN([C@@H](C)CO)C(=O)Cc2cc(NC(=O)CCC(F)(F)F)ccc2O[C@@H]1CN(C)Cc1ccc2c(c1)OCO2
→ -5	6
- C[C@@H]1CN([C@@H](C)CO)C(=O)c2cc(NC(=O)CCCCCC(=O)Nc3ccccc3N)ccc2O[C@@H]1CN(C)S(=O)(=O)c1cccs1
→ 14	-2
- C[C@@H]1CN([C@H](C)CO)C(=O)CCCn2nncc2CO[C@H]1CN(C)S(=O)(=O)c1ccc(C#N)cc1
→ 11	9
- CN1C(=O)c2cc(NC(=O)c3ccc(F)cc3)ccc2OC[C@@H]2O[C@H](CC(=O)NCC3CCCCC3)CC[C@@H]21
→ u	x
- C[C@H]1CN([C@@H](C)CO)C(=O)c2cccc(NC(=O)c3cnccn3)c2O[C@@H]1CN(C)Cc1ccc(C(=O)O)cc1
→ 13	23
- O=C(C[C@@H]1C=C[C@@H](NC(=O)C2CC2)[C@H](CO)O1)NCc1ccncc1
→ -3	-4
- Cc1ccc(-c2ccccc2[C@@H]2[C@H](C#N)N(c3ncc(-c4ccccc4)s3)[C@H]2CO)cc1
→ 8	4
- O=C(Nc1cccc(F)c1)N1CC(=O)N2[C@H](CO)[C@H](c3ccc(C#CC4CC4)cc3)[C@H]2C1
→ 6	-12
- O=C(C[C@@H]1CC[C@@H](NC(=O)C2CC2)[C@H](CO)O1)NCc1ccncc1
→ 11	13
- O=C(Nc1ccccc1)N[C@@H]1CC[C@@H](CCNS(=O)(=O)c2ccccc2F)O[C@H]1CO
→ -5	-5
- COc1ccc(C#Cc2ccc3c(c2)[C@@H]2[C@@H](CCN2S(=O)(=O)c2ccc(OC)cc2)[C@@H](CO)N3C)cc1
→ 21	3
- O=C(NCC[C@H]1CC[C@H](NS(=O)(=O)c2ccc(Oc3ccccc3)cc2)[C@@H](CO)O1)C1CC1
→ -16	-14
- C[C@@H]1CN([C@H](C)CO)C(=O)c2cc(NC(=O)Nc3ccc4c(c3)OCO4)ccc2O[C@@H]1CN(C)S(=O)(=O)c1ccccc1
→ -7	-6
- C[C@@H]1CN([C@@H](C)CO)C(=O)Cc2cc(NS(C)(=O)=O)ccc2O[C@H]1CN(C)Cc1ccncc1
→ 4	12
- CO[C@H]1CN(C)C(=O)c2cc(NS(=O)(=O)CC(F)(F)F)ccc2OC[C@@H](C)N(CCC(F)(F)F)C[C@H]1C
→ 1	-7

In another format: results already given
| Compound | Vaccinia stage | Vaccinia stage Venus |
| --- | --- | --- |
| O=C(NCC[C@H]1CC[C@H](NS(=O)(=O)c2ccc(Oc3ccccc3)cc2)[C@@H](CO)O1)C1CC1 | -16 | -14 |
| C[C@@H]1CN([C@H](C)CO)C(=O)c2cc(NC(=O)Nc3ccc4c(c3)OCO4)ccc2O[C@@H]1CN(C)S(=O)(=O)c1ccccc1 | -7 | -6 |

Single records, from the list above.
`O=C(C[C@@H]1CC[C@@H](NC(=O)C2CC2)[C@H](CO)O1)NCc1ccncc1` is entered as Vaccinia stage: 11; Vaccinia stage Venus: 13
`C[C@@H]1CN([C@@H](C)CO)C(=O)Cc2cc(NC(=O)CCC(F)(F)F)ccc2O[C@@H]1CN(C)Cc1ccc2c(c1)OCO2` is entered as Vaccinia stage: -5; Vaccinia stage Venus: 6

(more compounds)
Results follow in this order: Vaccinia stage	Vaccinia stage Venus
- O=C(C[C@@H]1CC[C@H](NS(=O)(=O)c2ccc(F)cc2)[C@@H](CO)O1)NCc1ccncn1
→ 4	13
- COc1cccc(NC(=O)N(C)C[C@@H]2OCc3ccccc3-c3c(n(C)c4ccccc34)C(=O)N([C@@H](C)CO)C[C@@H]2C)c1
→ u	x
- CO[C@H]1CN(C)C(=O)c2cc(NC(=O)C3CCCCC3)ccc2OC[C@H](C)N(Cc2nccs2)C[C@H]1C
→ -5	5
- COc1cccc(-c2ccc3c(c2)[C@H]2[C@H](CCN2C(=O)Nc2ccccc2OC)[C@H](CO)N3C)c1
→ u	x
- CC(C)C#Cc1ccc2c(c1)O[C@@H](CN(C)C(=O)c1cnccn1)[C@@H](C)CN([C@@H](C)CO)S2(=O)=O
→ 12&15	5&0
- C[C@H]1CN([C@@H](C)CO)S(=O)(=O)c2ccc(C#CCN(C)C)cc2O[C@H]1CN(C)C(=O)c1ccccc1F
→ 16	6
- CCCc1cn(CC[C@H]2CC[C@H](NC(=O)C3CCOCC3)[C@@H](CO)O2)nn1
→ 9	10
- C[C@H](CO)N1C[C@H](C)[C@@H](CN(C)S(=O)(=O)c2ccccc2)Oc2c(NC(=O)C3CCCCC3)cccc2C1=O
→ -12	-5
- COc1ccc(NC(=O)Nc2ccc3c(c2)CC(=O)N([C@@H](C)CO)C[C@@H](C)[C@@H](CN(C)S(=O)(=O)c2ccc(Cl)cc2)O3)cc1
→ -10	-1
- CO[C@@H]1CN(C)C(=O)c2ccc(NS(C)(=O)=O)cc2OC[C@@H](C)N(Cc2cncnc2)C[C@@H]1C
→ 11	15
- COCC#Cc1ccc([C@H]2[C@H]3CN(C(=O)Nc4ccccc4F)CC(=O)N3[C@H]2CO)cc1
→ 12	6
- CC(C)CC#Cc1ccc([C@H]2[C@H]3CN(C(=O)c4cccc(F)c4)CC(=O)N3[C@H]2CO)cc1
→ -27	-18
- C[C@@H]1CCCCO[C@@H](CN(C)C(=O)Nc2ccc(C(F)(F)F)cc2)[C@H](C)CN([C@@H](C)CO)C(=O)c2cc(NS(C)(=O)=O)ccc2O1
→ u	x
- OC[C@H]1[C@H](c2ccc(/C=C/c3ccccc3)cc2)[C@@H]2CN(Cc3ccncc3)CCCCN12
→ -23	-12
- COCCNC(=O)C[C@H]1CC[C@@H]2[C@H](COc3ccc(NC(=O)C4CCCC4)cc3C(=O)N2C)O1
→ 6	4
- C[C@H](NC(=O)C[C@@H]1C=C[C@H](NC(=O)C2CCOCC2)[C@H](CO)O1)c1ccccc1
→ -4	-5
- COc1ccccc1-c1ccc([C@@H]2[C@@H](CO)N3CCCCN(S(=O)(=O)c4cn(C)cn4)C[C@H]23)cc1
→ 3	-15
- C[C@@H]1CN([C@H](C)CO)C(=O)Cc2cc(NC(=O)Cn3cnnn3)ccc2O[C@@H]1CN(C)Cc1ccc(-c2ccccc2)cc1
→ -29	-25
- O=C(Nc1ccccc1)[C@@H]1[C@@H](CO)[C@@H]2Cn3c(ccc(C4=CCCCC4)c3=O)[C@@H]2N1Cc1ccccn1
→ -7	6
- CN1C(=O)c2cc(NC(=O)C3CCCCC3)ccc2OC[C@H]2O[C@@H](CC(=O)NC3CCCC3)CC[C@@H]21
→ 16	13
- CO[C@H]1CN(C)C(=O)c2ccc(NC(=O)c3nc4ccccc4s3)cc2OC[C@@H](C)N(Cc2ccncc2)C[C@@H]1C
→ u	x
- CCC(=O)N1[C@H](CO)[C@H](c2ccc(-c3cccc(OC)c3)cc2)[C@@H]1CNC(C)=O
→ 10	10
- C[C@H](CO)N1C[C@H](C)[C@H](CN(C)C)Oc2ncc(-c3cc4ccccc4o3)cc2C1=O
→ -25	-21
- COCC(=O)N1[C@@H](CO)[C@H](c2ccccc2)C12CN(C(=O)c1ccccc1)C2
→ 2	6
- C[C@H](O)C#Cc1cnc2c(c1)C(=O)N([C@@H](C)CO)C[C@H](C)[C@H](CN(C)C(=O)c1ccccc1)O2
→ 8	2
- COCC(=O)Nc1ccc2c(c1)C(=O)N(C)C[C@H](OC)[C@@H](C)CN(C)[C@@H](C)CO2
→ 22	7
- O=C(N[C@@H]1CC[C@@H](CCNS(=O)(=O)Cc2ccccc2)O[C@H]1CO)c1ccc2c(c1)OCO2
→ -11	-10
- Cc1ccc(S(=O)(=O)Nc2ccc3c(c2)C(=O)N([C@H](C)CO)C[C@@H](C)[C@H](CN(C)C)OCCCC[C@@H](C)O3)cc1
→ 2	10
- COCC(=O)Nc1ccc2c(c1)OC[C@@H](C)NC[C@H](C)[C@H](OC)CN(C)C2=O
→ 7	8
- O=C(N[C@H]1CC[C@@H](CCn2cc(C3CCCC3)nn2)O[C@@H]1CO)c1cccnc1
→ 3	-4
- O=C(CC1CC1)N[C@H]1CC[C@H](CCNS(=O)(=O)c2ccc(Cl)cc2)O[C@H]1CO
→ -2	-3
- O=C(C[C@H]1CC[C@@H]2NC[C@H](O)COC[C@H]2O1)NCCc1ccccc1
→ -9	-7
- C[C@H](CO)N1C[C@H](C)[C@@H](CN(C)C(=O)c2ccccc2F)Oc2ncc(-c3ccncc3)cc2C1=O
→ 13	11
- COCC(=O)N(C)C[C@@H]1Oc2ncc(-c3ccc(C#N)cc3)cc2C(=O)N([C@H](C)CO)C[C@H]1C
→ 8	9
- C[C@@H]1CN([C@H](C)CO)C(=O)c2cc(Br)cnc2O[C@H]1CN(C)C(=O)Cc1ccccc1
→ 15	-2
- C[C@@H]1CN([C@H](C)CO)C(=O)c2cc(NS(=O)(=O)c3ccc(F)cc3)ccc2O[C@@H](C)CCCCO[C@@H]1CN(C)Cc1ccc(C(=O)O)cc1
→ 36	18
- CN(C)C(=O)c1ccc(-c2ccc([C@@H]3[C@@H](CO)N4C(=O)CN(C(=O)CC5CC5)C[C@H]34)cc2)cc1
→ 17	15
- COCC(=O)N1CC(=O)N2[C@@H](CO)[C@H](c3ccc(-c4ccncc4)cc3)[C@@H]2C1
→ 5	8
- C[C@H]1CN([C@@H](C)CO)C(=O)c2cc(-c3ccc(F)cc3)cnc2O[C@@H]1CN(C)Cc1ccccn1
→ -4	-2
- C[C@H](CO)N1C[C@H](C)[C@@H](CN(C)C(=O)Cc2ccccc2)Oc2cc(C#Cc3ccccc3F)ccc2S1(=O)=O
→ u	x
- C[C@H](CO)N1C[C@H](C)[C@@H](CN(C)Cc2ccccc2)OCc2cn(nn2)CCCC1=O
→ 8	7
- Cc1cccc(S(=O)(=O)N2C[C@@H](O)COC[C@@H]3O[C@@H](CC(=O)Nc4ccc(-c5ccccc5)cc4)CC[C@H]32)c1
→ u	x
- C[C@@H]1CN([C@H](C)CO)C(=O)Cc2cc(NC(=O)Cc3cn(C)c4ccccc34)ccc2O[C@@H]1CN(C)C(=O)Nc1ccc(F)cc1
→ 25	22
- C[C@@H]1CN([C@H](C)CO)C(=O)c2cc(/C=C/c3ccccc3)cnc2O[C@@H]1CN(C)C(=O)Nc1ccccc1F
→ -15	-8
- CN(C)C(=O)C[C@H]1C=C[C@@H](NC(=O)NC2CCCCC2)[C@@H](CO)O1
→ -12	8
- N#C[C@H]1[C@@H](c2ccc(-c3cccc(F)c3)cc2)[C@H](CO)N1C(=O)CN1CCOCC1
→ -5	0
- COc1ccc(CN(C)C[C@@H]2OCCCC[C@H](C)Oc3ccc(NC(=O)Nc4ccc5c(c4)OCO5)cc3C(=O)N([C@@H](C)CO)C[C@H]2C)cc1
→ -32	-33
